AmpC inh no det – inhibitors of E. coli AmpC beta-lactamase without detergent. 1.8% of 71,000 active. Potency, µM (series often up to 28.7 µM), for the others: at the highest dose activity change, negative = inhibition. AID 585. AmpC nitrocefin hydrolysis, absorbance 480 nm, no detergent; potencies from a single point are estimates; active = falling curve, for most hits resting on a single point; inconclusive = weak or doubtful change; inactive = flat or rising curve; also: % of control where 0% means no effect; about half of the hits show no inhibition at the top dose; a quarter of the inactives give rising signals
Target sequence (P00811 whole entry, looked up): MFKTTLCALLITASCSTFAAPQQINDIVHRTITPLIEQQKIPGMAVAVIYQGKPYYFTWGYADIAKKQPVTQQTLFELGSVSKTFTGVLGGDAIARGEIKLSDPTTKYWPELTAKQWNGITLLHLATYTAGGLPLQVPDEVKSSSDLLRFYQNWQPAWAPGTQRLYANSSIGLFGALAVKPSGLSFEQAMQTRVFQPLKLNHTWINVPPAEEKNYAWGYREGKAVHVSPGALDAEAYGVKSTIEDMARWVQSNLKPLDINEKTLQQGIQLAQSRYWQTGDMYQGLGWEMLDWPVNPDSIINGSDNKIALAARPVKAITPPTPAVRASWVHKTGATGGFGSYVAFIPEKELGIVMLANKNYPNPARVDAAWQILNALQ
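AmpC in 20 mM phosphate buffer pH 7.0 was preincubated 15 min at room temperature with compounds. Nitrocefin (800 uM stock) was then added and hydrolysis followed at 480 nm every 20 s for 4 min.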
* marks the source's active call; other numbers are inactive results; ? = inconclusive; [ ] = dose if it differs, or a comment. Potency is read from the fitted curve at half-maximal effect.

SMILES	AmpC inh no det
COc1cc(-c2nc(-c3ccncc3)no2)cc(OC)c1OC	6%
CCCn1nc2ccccc2c1P(=O)(N1CCOCC1)N1CCOCC1	24%
C=CCN1C(=Nc2ccccc2)SC/C1=C\C(=O)OC	16%
O=C(CSc1nnnn1-c1cccc2c1CCCC2)N1CCOCC1	74%
O=C(Nc1ccccc1C(F)(F)F)c1cc(-c2ccc(O)cc2)on1	18%
COc1ccccc1Nc1nc(N)nc(CN2CCN(Cc3ccccc3)CC2)n1	47%
COc1ccc(-n2c(C)nc3c(cnn3-c3ccc(Cl)cc3)c2=O)cc1	78%
CC(C)CCNC(=O)Cn1c(NCCC(C)C)nc2c1c(=O)n(C)c(=O)n2C	2.5µM*[single pt active]
CN(Cc1ccccc1)C(=O)CCCn1c(=O)[nH]c2cc(Cl)ccc2c1=O	26%
Cc1ccc(O)c(CNc2ccccn2)c1	-16%
Cc1c(NC(=O)C2Cc3ccccc3CN2C(=O)c2ccco2)c(=O)n(-c2ccccc2)n1C (centres undefined)	-6%
Nc1c(C(=O)NCc2ccccc2)nnn1Cc1cccc(Cl)c1	-20%
CCOC(=O)C(Oc1ccc(=O)n(-c2ccccc2)n1)C(C)=O (centres undefined)	3%
O=c1c2ccccc2oc2nc3n(c(=O)c12)CCCS3	-4%
COC(=O)C1=C(C)NC(=O)CC1c1cccc(OC)c1OC (centres undefined)	17%

Three records drawn at random from the list so far, as already listed:
SMILES	AmpC inh no det
O=c1c2ccccc2oc2nc3n(c(=O)c12)CCCS3	-4%
O=C(Nc1ccccc1C(F)(F)F)c1cc(-c2ccc(O)cc2)on1	18%
COc1ccc(-n2c(C)nc3c(cnn3-c3ccc(Cl)cc3)c2=O)cc1	78%

At a glance, part of the list above:
SMILES	AmpC inh no det
Cc1c(NC(=O)C2Cc3ccccc3CN2C(=O)c2ccco2)c(=O)n(-c2ccccc2)n1C (centres undefined)	-6%
Nc1c(C(=O)NCc2ccccc2)nnn1Cc1cccc(Cl)c1	-20%
CCOC(=O)C(Oc1ccc(=O)n(-c2ccccc2)n1)C(C)=O (centres undefined)	3%
O=c1c2ccccc2oc2nc3n(c(=O)c12)CCCS3	-4%
COC(=O)C1=C(C)NC(=O)CC1c1cccc(OC)c1OC (centres undefined)	17%

(next part)
SMILES	AmpC inh no det
COc1cc(NS(=O)(=O)c2ccc(NC(=O)COc3ccc(C)cc3)cc2)nc(OC)n1	-13%
COc1ccc(CNC(=O)Cn2nc(C(F)(F)F)c3c2CCC3)cc1	7%
CCSc1ncnc2c(C#N)c3n(c12)CCCCC3	20%
CN(CC(=O)NCc1cccs1)S(=O)(=O)c1cccc2nsnc12	-11%
O=C(NC1CC2CCCC(C1)N2Cc1ccco1)NC12CC3CC(CC(C3)C1)C2 (centres undefined)	14%
COc1cc(NC(=O)c2ccc3c(c2)OCO3)ccc1NC(=O)C(C)C	0%
Cc1ccc(C)c([C@@H]2NC(=O)c3ccccc3N2)c1	-2%[5.75 µM]
CCCCCCn1c(O)c(C=NC2CCCCC2N)c(=O)[nH]c1=O (centres undefined)	-24%
c1ccc2cc(C3=NCCN3)ncc2c1	39%
CCOc1ccc(-c2nc(C#N)c(N3CCOCC3)o2)cc1	38%
O=S(=O)(NC1CCCC1)c1ccccc1Cl	-3%
COc1ccc(Cl)cc1S(=O)(=O)N1CCN(Cc2ccc3c(c2)OCO3)CC1	70%
Cc1ccc(Nc2nc(C(=O)NCc3ccco3)cs2)cc1	-6%
C=C1CSc2nc(=O)c3c4c(sc3n21)CCC4	1%
CCCCC1CCC(c2nc(-c3cccnc3)no2)CC1 (centres undefined)	16%
CC(C)CC(NC(=O)OC(C)(C)C)C(=O)NC(C(=O)NC(C)C(N)=O)C(C)C (centres undefined)	-1%
Cn1c(SCc2nnc3n2CCCCC3)nc2ccccc21	-10%
C=CCOC(=O)C1=C(C)NC(=O)NC1/C=C/c1ccccc1 (centres undefined)	-4%
CCN(CC)C(=O)c1sc(N)c(C#N)c1C	16%
CC(=O)c1ccc(NC(=O)CCNS(=O)(=O)c2cccc3nonc23)cc1	6%
Cc1cc(C(=O)Nc2cccnc2)cs1	-1%
COC(=O)c1ccccc1S(=O)(=O)N(Cc1ccco1)Cc1cc2cc(OC)ccc2[nH]c1=O	14%
CC1CCCC(NC(=O)c2ccc3c(=O)n(CC4CCCO4)c(=O)[nH]c3c2)C1C (centres undefined)	24%
CC1CCN(C(=O)c2ccc(NS(C)(=O)=O)cc2)CC1	5%
CCOC(=O)c1nnn(-c2nonc2N)c1CN1CCc2ccccc2C1	26%
CCn1cc(C2=NC(c3ccccc3)CO2)c2ccccc21 (centres undefined)	62%
Cc1ccc(CCNC(=O)C2CCN(S(=O)(=O)N3CCCC3)CC2)cc1	8%
O=C(c1cc2ccccn2n1)N1CCN(c2cccc(C(F)(F)F)c2)CC1	67%
Cc1cc(Nc2cccc(C)c2C)n2ncnc2n1	6%
CCCCCCCCC1CO1 (centres undefined)	-10%
CCOc1ccc(NC(=O)CN2CCN(CC(=O)Nc3ccc(C(=O)OC)cc3)CC2)cc1	68%
Nc1ncnc2c1ncn2[C@@H]1O[C@@H](COP(=O)(O)CP(=O)(O)OP(=O)(O)O)[C@H](O)[C@@H]1O	0%
CC(=O)N=c1sc2cc(C)ccc2n1C	7%
COc1cc([C@H](O)CO)ccc1O	-12%
COc1cccc2c1[C@H](CO)N1[C@H](C#N)[C@@H]3C[C@H](C(=O)O)[C@@H]([C@@H]1C2)N3C	-3%[5.75 µM]
CCCN1Cc2cccc(C(=O)NCc3cccs3)c2C1=O	12%
COCCN1CN=C(Nc2nc3ccccc3s2)NC1	-16%
COc1ccccc1C1N(c2ccc(F)cc2)C(=O)C2CCCN21 (centres undefined)	21%
CC1=C(C(N)=O)C(c2cccc(O)c2)n2nc(CCCO)nc2N1 (centres undefined)	1%
CCn1c(SCC(=O)c2ccccc2)nnc1-c1ccoc1C	18%
c1coc(-c2nc(-c3ccco3)c(-c3ccco3)nc2-c2ccco2)c1	10%
CC(C)C(=O)N(Cc1cc(=O)[nH]c2ccccc12)c1ccccc1	23%
Cc1ccccc1OCC(=O)N(Cc1cccs1)C1CCS(=O)(=O)C1 (centres undefined)	48%
CCOc1cc(C(=O)Nc2ccc(N3CCN(S(C)(=O)=O)CC3)cc2)cc(OCC)c1OCC	23%
CC(C)CN1C(=O)c2ccc(C(=O)Nc3ccncc3)cc2C1=O	6%
CC(C)C(C(=O)NC1CCCCC1)N(CC1CCCO1)C(=O)CNS(=O)(=O)c1ccc(F)cc1 (centres undefined)	71%
CC(=O)c1c(C)[nH]c(C(=O)OCC(=O)NCCc2ccc(F)cc2)c1C	7%
CCCc1[nH]nc2c1C(Cc1ccccc1)C(C#N)=C(N)O2 (centres undefined)	-12%
O=C1COC(c2ccccc2O)=NN1CCCN1CCCC1	-3%[5.75 µM]
COc1cccc(C(=O)CSc2nnc(-c3cccs3)o2)c1	23%
C=CCOc1nc(N2CCCC2)nc(N2CCCC2)n1	48%
COc1ccc(CCNC(=O)NC2CCCCC2)cc1OC	6%
CC1(C)CC(=O)C2=C(C1)OC(N)=C(C#N)C2CCc1ccccc1 (centres undefined)	-10%
CCCn1c2c(c(O)c(C(=O)Nc3ccccn3)c1=O)CCCC2	14%
CCn1c(SCC(=O)O)nnc1-c1ccccc1	-4%
O=C(O)c1ccccc1C(=O)NCc1ccccc1	-2%
CC(=O)N(Cc1cc(=O)[nH]c2ccccc12)c1ccc(C)cc1	14%
CC(C)NC(=O)CSc1nnc(-c2ccc(C(C)(C)C)cc2)n1C	42%
COc1ccc(N2CCN(S(=O)(=O)c3ccc(OC)cc3)CC2)cc1	9%
O=C(O)c1[nH]c2ccc(Cl)cc2c1CC(=O)N1CCN(c2ccccc2)CC1	-2%

Remaining list, next part
SMILES	AmpC inh no det
CC(C)Cc1cc(C(=O)Nc2cc(Br)ccc2O)no1	?
O=C(O)c1cccc(OCCO)c1	-3%[5.75 µM]
CC(C)CCOc1cccc(OCC(=O)NC2CCS(=O)(=O)C2)c1 (centres undefined)	60%
CN1CCN(c2nc3c(c(=O)n(C)c(=O)n3C)n2CCSc2nc3ccccc3s2)CC1	94%
COc1cc(-c2nnc3sc(-c4cccs4)nn23)cc(OC)c1OC	38%
COc1ccc(C(=O)CSc2nnc(CNC(=O)c3ccc(OC)cc3)n2C)cc1	14%
O=C1CC(C(=O)N2CCC3(CC2)OCCO3)CN1CCc1ccccc1 (centres undefined)	3%
O=C(Nc1ccc2c(c1)oc1ccccc12)c1ccc2c(c1)OCO2	?
CC(=O)c1c(C)[nH]c(C(=O)N2CCc3ccccc3C2)c1C	0%
CCCC[C@H](CC)CN1CN(C[C@@H](CC)CCCC)CC(C)(N)C1	10%[12.8 µM]
CCN(CC)S(=O)(=O)c1ccc2c(c1)c(=O)c(C(=O)N1CCc3ccccc3C1)cn2C	99%
O=C(Nc1cccc(F)c1)C1CC(=O)N(c2ccc(Cl)cc2)C1 (centres undefined)	4%
O=C(NCc1cccnc1)c1ccc(COc2ccc3c(c2)CCC3)o1	76%
Cc1cc(C)c(C)c(S(=O)(=O)NCc2ccco2)c1C	11%
CCOC(=O)c1c(C)[nH]c(C(=O)CSc2nc3ccccc3o2)c1C	0%
Nc1nc(NCc2cccs2)nn1-c1ccccc1	-12%
COc1ccc(C(=O)c2coc3ccc(O)c(CN4CCCC4)c23)cc1	23%
Cc1c(NC(=O)c2ccc(N3C(=O)C4C5C=CC(C5)C4C3=O)cc2)c(=O)n(-c2ccccc2)n1C (centres undefined)	0%
O=c1[nH]c(NCc2ccco2)nnc1Cc1ccccc1Cl	-14%
CCn1c(C)c(C(C)=O)c(N2CCCC2)nc1=S	2%
Nc1c(C(=O)Nc2ccc3c(c2)OCCO3)nnn1CCc1ccccc1	4µM*[single pt active]
COc1ccc(-n2c(SCC(=O)N3CCCC(C)C3)nnc2-c2cccnc2)cc1 (centres undefined)	54%
O=C(CSc1nnc(Cn2c(=O)sc3ccccc32)n1-c1ccccc1)N1CCCC1	80%
Cc1c(C(=O)NC(C)c2ccncc2)oc2ccccc12 (centres undefined)	-12%
O=C(CCN1C(=O)c2ccccc2C1=O)N1CCCCCC1	11%
CCn1nnnc1-c1ccc(OC)c(S(=O)(=O)Nc2ccc(OC)cc2)c1	9%
COc1ccc(OCc2nn3c(-c4cccc(OC)c4)nnc3s2)cc1	22%
CCCN(CCC)C(=O)CSc1nc2ccccc2c(=O)n1C1CCCC1	49%
Cc1cc(=O)[nH]c2c(C)c(Cl)ccc12	12%
COc1cc(CN2CCN(CCOCCO)CC2)cc(OC)c1OC	-6%
CCN(CCO)Cc1cc(=O)oc2c(C)c(C)ccc12	18%
COc1cc(S(=O)(=O)N2CCOCC2)ccc1F	-7%
O=C1CSC2=NCN(c3ccc4c(c3)OCO4)CN12	2%
COC(=O)c1ccc(-n2c(C)cc(/C=N/n3cnnc3)c2C)cc1	19%
COc1ccc(C2CC(c3cccc(Cl)c3)n3nc(N)nc3N2)cc1 (centres undefined)	87%
COc1ccc(-c2oc3cc(OC)c(OC(C)=O)c(OC)c3c(=O)c2OC)cc1OC(C)=O	18%
CCOc1ccc(CCNC(=O)c2nnc(Cc3ccc(F)cc3)o2)cc1OCC	85%
Cc1ccc(N(CC(=O)NC2CCCC2)C(=O)CCCC(=O)Nc2ccccn2)cc1C	67%
CCOc1cc(C2C(C(=O)OCC(C)C)=C(C)N=C3SCCC(=O)N32)ccc1OC(C)=O (centres undefined)	128%
Cc1cc(C)c(C(N)=O)c(NCCc2ccccc2)n1	-3%
CCCCCCn1c(N2CCC(C(N)=O)CC2)nc2c1c(=O)n(C)c(=O)n2C	89%
COC(=O)Nc1nnc(CCc2ccccc2)s1	-11%
Cc1ccc(C)c(N2CCN(C(=O)CN(C)S(=O)(=O)c3cnc[nH]3)CC2)c1	36%
CCc1nnc(SCC(=O)NC2CCCCC2)nc1CC	10%
Cc1ccccc1N1OC2C(=O)N(c3ccc(F)cc3)C(=O)C2C1c1ccccn1 (centres undefined)	42%
COC(=O)c1ccccc1NC(=O)c1sc(=S)n(C)c1N	3%
Cn1c(=O)c2c(nc(CN3CCN(C(=O)c4ccco4)CC3)n2CCc2ccccc2)n(C)c1=O	106%
Cc1cc2ccccn2c1C(=O)c1ccncc1	-9%
COc1ccc(CNS(=O)(=O)c2ccc(S(=O)(=O)N3CCCCC3)cc2)cc1	10%
O=C(NCc1ccccn1)Nc1ccc2c(c1)OCO2	1%
Cc1ccc(S(=O)(=O)Nc2ccc3nc(-c4cccn4C)[nH]c3c2)cc1	-4%
C=CCN1C(=O)N(/C=C/C)c2cccc3cccc1c23	16%
Cc1cccc(NC(=O)c2ccccn2)c1C	1%
CCc1nc2sc(C)c(C)c2c(=O)n1CCO	5%
COc1cc(COc2cc(N)c(Cl)cc2C(=O)CCC2CCN(CCNS(C)(=O)=O)CC2)cc(OC)c1	104%

Compound activity: PubChem, National Center for Advancing Translational Sciences (NCATS)

Some of the compounds tested, so the mix of outcomes need not match the whole.
